Mtb growth = Mycobacterium tuberculosis H37Rv growth inhibition, cell based, confirmatory dose response (AID 1949). most inactive calls were filed without a number and no value below 0 was filed. hit rate 1.6% among 100,000. one-dose inhibition, % at 10 µg/mL; IC50 in µg/mL for titrated hits;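 active = confirmed in a dose series; inconclusive = about 50% or more but not retested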;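 note: bacteria grown 7 days with compound before Alamar blue readout; 0% = untreated bacteria and 100% = reference antibiotic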
Numbers without * were called inactive; i = inactive; ? = inconclusive. A portion of the library; count on the stated rates, not on these rows.

SMILES	Mtb growth
OCC1CCCN(C(=S)Nc2ccc(Nc3ccccc3)cc2)C1 (stereo not drawn)	i
COCCCNCCOc1ccc(C)cc1[N+](=O)[O-]	i
CC(C)C(=O)NC(c1ccccc1)c1ccccc1	i
COc1cccc2c1OC1(C)NC(=O)NC2C1C(=O)Nc1cccc(Cl)c1 (stereo not drawn)	i
COc1ccc(CCNC(=S)Nc2cccc(C(=O)NCc3ccccc3)c2)cc1OC	i
CC(C)(C)c1ccc(OCC(=O)NCc2ccco2)c(Br)c1	27.7%
COC(=O)Nc1ccc(C)cc1NC(=O)OC	i
COc1ccc(-c2noc(C3CCCCC3)n2)cc1	i
CC(=O)c1c(C)nc(-c2cccc(Br)c2)n1O	i
COC(=O)COc1ccc2oc(=O)cc(C)c2c1	i
CCCCc1cc(=O)oc2cc(OCC(=O)c3ccc(OC)cc3)ccc12	i
c1ccc2c(c1)CCN(CCOCCOc1ccc3c(c1)CCC3)C2	i
COC(=O)COc1cccc(C2NC(=S)NC(C)=C2C(=O)Nc2ccccc2)c1 (stereo not drawn)	i
Cc1ccc(S(=O)(=O)N(CC(=O)NCc2cccnc2)Cc2ccc(F)cc2)cc1	i
O=C(Cc1cccc2ccccc12)NCc1ccccn1	i
COc1ccccc1CNC(=O)c1ccc(C)s1	i
O=C(CCC1CCCC1)Nc1ccc(Cl)c(Cl)c1	i
O=C(OCc1cccc(C(=O)Oc2ccccc2)c1)c1cccc(-c2nnc(-c3ccccc3)o2)c1	8.5%
CCCc1nc2c(sc3nc4c(cc32)COC(C)(C)C4)c(=O)n1Cc1ccco1	i
COc1cc(NC(=S)NC(=O)CCc2ccccc2)cc(OC)c1	1.8%

Copied from the listing (14 entries):
SMILES	Mtb growth
OCC1CCCN(C(=S)Nc2ccc(Nc3ccccc3)cc2)C1 (stereo not drawn)	i
COCCCNCCOc1ccc(C)cc1[N+](=O)[O-]	i
CC(C)C(=O)NC(c1ccccc1)c1ccccc1	i
COc1cccc2c1OC1(C)NC(=O)NC2C1C(=O)Nc1cccc(Cl)c1 (stereo not drawn)	i
COc1ccc(CCNC(=S)Nc2cccc(C(=O)NCc3ccccc3)c2)cc1OC	i
CC(C)(C)c1ccc(OCC(=O)NCc2ccco2)c(Br)c1	27.7%
COC(=O)Nc1ccc(C)cc1NC(=O)OC	i
COc1ccc(-c2noc(C3CCCCC3)n2)cc1	i
CC(=O)c1c(C)nc(-c2cccc(Br)c2)n1O	i
COC(=O)COc1ccc2oc(=O)cc(C)c2c1	i
CCCCc1cc(=O)oc2cc(OCC(=O)c3ccc(OC)cc3)ccc12	i
c1ccc2c(c1)CCN(CCOCCOc1ccc3c(c1)CCC3)C2	i
COC(=O)COc1cccc(C2NC(=S)NC(C)=C2C(=O)Nc2ccccc2)c1 (stereo not drawn)	i
Cc1ccc(S(=O)(=O)N(CC(=O)NCc2cccnc2)Cc2ccc(F)cc2)cc1	i

Next compounds follow.
SMILES	Mtb growth
CCOc1ccc(OCCSc2nc3ccccc3n2CC(O)CO)cc1 (stereo not drawn)	i
CN1CCN(C(=O)c2ccc(CNS(=O)(=O)c3cccc(Cl)c3)cc2)CC1	0.0%
CC(C)(CO)NCC#Cc1ccccc1	i
CC(C)(C)c1ccc(-c2n[nH]c(=S)n2CCCN2CCOCC2)cc1	i
COc1ccc(NC(=O)CN(c2cc(C)ccc2C)S(C)(=O)=O)c(OC)c1	i
Cc1ccc(N(Cc2ccc(C(=O)Nc3cccc(C)c3C)cc2)S(C)(=O)=O)cc1C	i
CCN(CC)CCCOc1cc(C)ccc1C(C)(C)C	i
CCOC(=O)C1CCN(CCC(=O)Nc2ccc(C)c(C)c2)CC1	i
Cc1cccc(Oc2coc3cc(OC(=O)c4ccncc4)ccc3c2=O)c1	i
O=Cc1cccc(OCC(=O)NCc2ccccc2)c1	0.7%
COC(=O)c1c(-c2ccccc2)csc1NC(=O)c1ccc([N+](=O)[O-])c(C)c1	i
COc1ccc2nc(NC(=O)CN3CCC(C)CC3)sc2c1	i
Cc1ccc(S(=O)(=O)N(CC(=O)Nc2ccc3c(c2)OCO3)Cc2ccccc2F)cc1	2.0%
COc1cccc(C(=O)N2CCN(S(C)(=O)=O)CC2)c1OC	i
O=C(O)c1cc(-c2ccc(F)cc2)no1	i
COc1ccc(OCCCN2CCc3ccccc3C2)cc1	i
COc1ccc(C(=O)Nc2ccccc2)cc1S(=O)(=O)Nc1ccc(Cl)cn1	i
CCOC(=O)c1cc(CC)sc1NC(=O)c1ccccc1Cl	8.5%
CCOC(=O)c1c(NC(=O)c2ccc(Cl)cc2Cl)sc(C(=O)Nc2ccccc2F)c1C	1.0%
COc1cccc(NC(=O)CSc2nnc(COc3ccc(C(C)C)cc3)n2C)c1	i
CCCC(=O)Nc1ccccc1NC(=O)COc1cccc2ccccc12	i
COc1ccc(OCCCC(=O)Nc2ccccc2C(F)(F)F)cc1	i
CC1CCN(C(=O)CCC2CCCC2)CC1	i
Cc1cccc(-n2ncc3c(N4CCN(c5cccc(Cl)c5)CC4)ncnc32)c1	10.1%
CS(=O)(=O)N(Cc1ccccc1Cl)c1ccc(C(=O)Nc2cccc([N+](=O)[O-])c2)cc1	i
COCC(=O)Oc1ccc(OCc2ccccc2)cc1	6.0%
O=C(CCCN1C(=O)c2ccccc2C1=O)Nc1ccc2c(c1)OCCO2	7.7%
CSc1ccc(N2CCN(CCCNC(=O)Nc3ccccc3F)CC2)cc1	20.4%
COc1ccc(CCCC(=O)Nc2ccc(Br)c(C)c2)cc1C	i
CCNC(=S)Nc1ccc(Cc2nc3ccccc3[nH]2)cc1	4.3%
O=C(Nc1nnc(C2CCCCC2)s1)c1c(F)cccc1F	i
CCn1c(NCc2ccccc2Cl)nc2ccccc21	3.0%
COc1ccc(S(=O)(=O)N2Cc3ccccc3CC2C(=O)O)cc1OC (stereo not drawn)	0.5%
CCOc1ccc(C(=O)CCNC(Cc2ccccc2)C(=O)O)cc1 (stereo not drawn)	i
Cn1c(SCC(=O)Nc2ccc(Cl)c(Cl)c2)nnc1-c1ccc(Cl)c(Cl)c1	1.8%
COc1ccc(C2=NN(C(=S)NCc3ccccc3)C(c3cccc([N+](=O)[O-])c3)C2)cc1 (stereo not drawn)	9.8%
C=CCN(CC=C)CC(O)Cn1c(C)c(C)c2ccccc21 (stereo not drawn)	i
CCOC(=O)c1c(N)sc(C(=O)Nc2ccc3c(c2)OCO3)c1C	i
CCc1cc(Br)cc(CC)c1NC(=O)CCN1C(=O)C2C3CCC(C3)C2C1=O (stereo not drawn)	i
OCc1ccc(OCCOCCOc2ccc(Cl)c3cccnc23)cc1	i

Reprinted from the part before: 2 compounds, followed by the next part.
SMILES	Mtb growth
CCc1cc(Br)cc(CC)c1NC(=O)CCN1C(=O)C2C3CCC(C3)C2C1=O (stereo not drawn)	i
OCc1ccc(OCCOCCOc2ccc(Cl)c3cccnc23)cc1	i
N#CCCCCN1c2cccc3cccc(c23)S1(=O)=O	1.3%
CCC(=O)Nc1ccc2nc(SCc3ccc(Br)cc3)sc2c1	39.5%
CC1Cc2cc(-c3nn(-c4ccccc4)cc3/C=C(\C#N)c3nc4ccccc4c(=O)[nH]3)ccc2O1 (stereo not drawn)	5.4%
COCc1nc2ccccc2n1Cc1ccc(C(C)C)cc1	10.5%
Fc1ccc(N2CCN(c3ncnc4c3cnn4-c3ccccc3)CC2)cc1	i
COc1ccc(CN2C(=O)C(O)(CC(=O)c3cccc([N+](=O)[O-])c3)c3ccccc32)cc1OC (stereo not drawn)	0.3%
Cc1cccc(C(=O)NC(c2ccccc2)c2ccccc2)c1[N+](=O)[O-]	0.4%
COC(=O)C1=CN(C(C)C)C=C(C(=O)OC)C1c1cccc(Br)c1	i
Cc1cc(Br)c(NC=O)cc1C	i
Nc1ncnc2nc(SCc3nc4ccccc4n3Cc3ccccc3)[nH]c12	i
Cc1ccc(N(CC(=O)Nc2ccc3c(c2)OCCO3)S(=O)(=O)c2ccc(C)cc2)cc1	i
COC(=O)NCc1cc2cc(Cl)ccc2[nH]1	i
COc1ccc(OCC(O)CNCc2ccco2)cc1 (stereo not drawn)	5.4%
CCOc1ccc(C(=O)NC(=S)NC23CC4CC(CC(C4)C2)C3)cc1[N+](=O)[O-]	i
Fc1cccc(-c2nn3c(COc4ccccc4)nnc3s2)c1	i
O=C(CC(c1ccccc1)c1ccccc1)NC1CCCCCCC1	26.2%
CCCNS(=O)(=O)c1cc(Cl)ccc1OC	i
CCOC(=O)N1CCN(C(=O)CCCOc2ccccc2)CC1	i
OCc1nc2ccccc2n1CC(O)Cn1ccc2ccccc21 (stereo not drawn)	i
CC(=O)Nc1ccc(NC(=O)CN(c2cccc(C)c2)S(C)(=O)=O)cc1	i
Cc1nn(C(=O)COc2ccccc2Br)c(C)c1Sc1ccccc1[N+](=O)[O-]	1.6%
CCCCNCCCCCCOc1ccc(F)cc1	16.4%
Cc1ccccc1NC(=O)c1ccc(NC(=O)c2ccc(Cl)cc2Cl)cc1	0.7%
O=C(c1ccc(Cl)cc1)N1CCN(c2ccc(Cl)cc2)CC1	i
COC(=O)c1cc(C(=O)Nc2ccc(S(=O)(=O)NC(C)(C)C)cc2)cc([N+](=O)[O-])c1	i
Cc1cc(Cl)ccc1OCCCC(=O)Nc1ccc(Br)cc1F	i
COc1ccc(NS(=O)(=O)c2ccc(NC(=O)COc3ccc(Br)cc3)cc2)cc1	i
CC(=O)c1ccc(OC(=O)COc2ccc(Br)cc2Cl)cc1	i
O=C(CC1Sc2ncnn2C1=O)Nc1ccccc1 (stereo not drawn)	i
CCn1c(SCC(=O)Nc2ccc(Cl)cc2Cl)nnc1-c1cc2cccc(OC)c2o1	i
C=CCC1c2cccc(C(=O)O)c2C(=O)N1c1cccc(C)c1 (stereo not drawn)	i
CCOC(=O)CSc1nc(-c2ccccc2)cc(C(F)(F)F)c1C#N	i
O=C(Cn1c(=O)oc2ccccc21)Nc1ccc(Cl)cc1	i
O=C(NCC1CCCO1)C1CCCCC1 (stereo not drawn)	3.3%
CCc1cc(=O)oc2cc(OCC(N)=O)c(Cl)cc12	i
S=c1nc(N2CCCCC2)[nH]c(N2CCCCC2)n1	i
CCOC(=O)Cc1csc(NC(=O)COc2cccc(C)c2)n1	0.1%
COc1ccc(OCCCC(=O)Nc2cc(Cl)cc(Cl)c2)cc1	i
O=C(NNC(=O)c1ccc(-n2cccc2)cc1)Nc1ccc(Br)cc1	i
O=C(Nc1cc(C(F)(F)F)ccc1Cl)c1ccc(CSc2ncccn2)cc1	35.1%
COc1ccccc1OCC(=O)Nc1ccc(C#N)cc1	i
Cc1cc(C)c(C#N)c(SCC(=O)Nc2nc3cc([N+](=O)[O-])ccc3s2)n1	i
COc1cc(S(=O)(=O)N2CCN(c3ccc(F)cc3)CC2)c(OC)cc1Br	i
COc1ccc(CCCc2nnc(SCC(=O)Nc3cc(F)ccc3C)n2C)cc1C	i
Cc1ccc(C(=O)NC2CCCCCC2)c(C)c1	i
CCC(=O)Nc1cc(C(=O)OC)ccc1C(=O)OC	i
COC(=O)Cc1c(C)c2cc(Cl)c(OCC(=O)c3ccc(Br)cc3)cc2oc1=O	i
Cc1ccc(-c2csc3ncn(CC(=O)O)c(=O)c23)cc1	i
COc1cc(N2CCOCC2)ccc1/C=C(/C#N)c1cccc(Br)c1	0.4%
Cc1ccccc1OCCCC(=O)Nc1ccc(F)cc1	i
COc1ccc(NC(=O)CC(c2ccc(F)cc2)c2ccco2)cc1 (stereo not drawn)	i
COC(=O)c1ccc(CSCC(=O)Nc2ccccc2)cc1	?
Cc1cccc(/C(N)=N/OC(=O)COc2ccc(Br)cc2C)c1	i
CCOc1ccc(CN2CCN(Cc3ccco3)CC2)cc1	i
Cc1c(Cl)ccc(NC(=O)c2ccc(F)cc2)c1Cl	6.8%
CCC(C)NC(=O)c1ccc(N(C)S(=O)(=O)c2ccc(C)cc2)cc1 (stereo not drawn)	i
CC(=O)Nc1ccc(S(=O)(=O)N2CCN(CCCOc3ccccc3Cl)CC2)cc1	i
COc1ccc(C(=O)CSc2nnc(C)s2)cc1OC	i
O=c1c2ccccc2ncn1CCOc1ccccc1Cl	i
CONc1nc(NC(C)(C)C)nc(OCC#N)n1	i

Additional structures:
SMILES	Mtb growth
COc1ccc(-c2nn(CCC(=O)O)cc2C=O)cc1OC	i
O=S(=O)(Nc1cccnc1)c1ccc(F)c(Cl)c1	i
Cc1nnc(SCc2nc3ccccc3c(=O)n2-c2ccccc2Cl)n1N	i
O=[N+]([O-])c1cccc(NC(=S)Nc2ccc(S(=O)(=O)N3CCCC3)cc2)c1	i
Cn1c2ccccc2c2[nH]c3ccccc3c21	1.2%
CS(=O)(=O)Nc1ccc(N2CCCCC2)c(Cl)c1	0.6%
CCOC(=O)Cn1cc(C(=O)c2ccccc2)c2ccccc21	?
Cc1ccc(S(=O)(=O)N(CC(=O)NCC2CCCO2)c2ccc(Cl)c(C(F)(F)F)c2)cc1 (stereo not drawn)	i
CC(=O)N(Cc1ccccc1)Cc1cn(-c2ccccc2)nc1-c1cccs1	i
O=C(COc1cccc(Br)c1)Oc1ccccc1Cl	i
NC1=NC(=O)/C(=C/c2cccc(OCc3ccc(Br)cc3)c2)S1	i
Cc1ccc(Cl)cc1NC(=O)C1CCN(C(=O)c2ccc(Cl)cc2Cl)CC1	i
CCOc1ccccc1C1NC(=O)NC(C)=C1C(=O)OCC1CCCO1 (stereo not drawn)	i
COc1ccc(N2C(=O)C(Cl)=C(Nc3ccccc3)C2=O)cc1	5.2%
Cc1cc(C)c(NC(=O)CN(C)S(=O)(=O)c2c(C)cc(C)cc2C)c(C)c1	1.4%
COc1ccccc1N1C(=O)c2cccc3c(Br)ccc(c23)C1=O	1.9%
C#CCOc1ccc(-c2nnc(Nc3ccc(OC)c(C(=O)NC)c3)c3ccccc23)cc1	i
Cc1cc(C)c(S(=O)(=O)N2CCCC(C(=O)O)C2)c(C)c1 (stereo not drawn)	i
Cc1ccc(C(=O)NCc2ccc(Cl)cc2)c(C)c1	1.9%
O=C(Nc1ccc2c(c1)OCCO2)c1ccccc1-c1ccccc1	34.5%
COc1ccc(OC)c(NC(=S)Nc2ccc(C)cn2)c1	i
COc1ccc(-n2c(=O)c3c4c(sc3n3c(SCc5ccccc5)nnc23)CCC4)cc1	i
Cc1cccc(-n2c(-c3ccncc3)n[nH]c2=S)c1	0.1%
O=S(=O)(Nc1ccc(Br)cc1)c1ccc(NS(=O)(=O)c2ccc3c(c2)OCCO3)cc1	i

Screening data (PubChem)
